# hNpr1 antagonist: Natriuretic polypeptide receptor (hNpr1) antagonism - Primary qHTS; actives 1.6% (n = 76,000); Atrial natriuretic peptide receptor 1 (Homo sapiens), P16066; HEK293 hNpr1 GloSensor cGMP, ANP-stimulated luminescence; Potency, µM (top dose mostly 46.3 µM), without a hit: at the highest dose activity change, negative = inhibition, most hits filed as inhibitors; active = well fitted inhibition curve with a large enough effect; inconclusive = small, poorly fitted or top-dose-only effect; inactive = no such curve, though single readings can be large or run the other way;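 further: nearly all actives have a fitted effect of over 60% in size; nearly all hits also lower the signal before the agonist is added; a reference antagonist and vehicle were the controls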
# Target sequence (P16066 whole entry, looked up): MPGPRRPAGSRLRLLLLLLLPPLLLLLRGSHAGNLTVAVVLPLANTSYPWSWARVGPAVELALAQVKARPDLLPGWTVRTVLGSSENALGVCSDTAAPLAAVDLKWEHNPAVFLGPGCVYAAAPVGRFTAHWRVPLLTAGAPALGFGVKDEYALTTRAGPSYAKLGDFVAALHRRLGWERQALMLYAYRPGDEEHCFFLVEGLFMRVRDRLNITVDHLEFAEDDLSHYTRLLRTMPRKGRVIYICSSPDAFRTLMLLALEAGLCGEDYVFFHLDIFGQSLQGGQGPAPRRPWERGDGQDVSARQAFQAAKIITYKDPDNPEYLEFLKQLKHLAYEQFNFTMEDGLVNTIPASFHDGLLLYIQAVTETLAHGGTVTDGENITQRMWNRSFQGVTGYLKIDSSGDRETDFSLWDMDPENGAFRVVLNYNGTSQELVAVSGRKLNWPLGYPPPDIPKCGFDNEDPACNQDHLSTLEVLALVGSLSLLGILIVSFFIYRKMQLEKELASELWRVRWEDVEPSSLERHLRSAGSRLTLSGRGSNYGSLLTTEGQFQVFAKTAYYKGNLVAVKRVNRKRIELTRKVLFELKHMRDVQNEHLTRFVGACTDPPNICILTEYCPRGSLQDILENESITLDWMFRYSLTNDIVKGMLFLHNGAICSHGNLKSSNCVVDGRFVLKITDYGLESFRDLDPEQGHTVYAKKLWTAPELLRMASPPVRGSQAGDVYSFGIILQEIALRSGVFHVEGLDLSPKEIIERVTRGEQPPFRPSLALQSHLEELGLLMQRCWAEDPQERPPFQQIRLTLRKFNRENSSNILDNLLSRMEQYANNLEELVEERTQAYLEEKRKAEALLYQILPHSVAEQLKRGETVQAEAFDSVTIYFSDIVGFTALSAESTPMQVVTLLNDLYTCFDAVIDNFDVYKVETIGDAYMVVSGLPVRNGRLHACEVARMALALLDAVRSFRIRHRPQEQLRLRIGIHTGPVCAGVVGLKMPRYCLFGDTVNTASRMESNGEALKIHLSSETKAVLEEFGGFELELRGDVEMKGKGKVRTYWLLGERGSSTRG
#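 Compound pre-incubated 30 min at room temperature on GloSensor-loaded HEK293 cells stably carrying hNpr1 and the pGS-40F cGMP biosensor. Stimulation uses hNppA at 0.1 nM final; luminescence is taken at baseline and 20 min post-agonist.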
# Active calls of the source: *; ? = inconclusive; [ ] = another dose, or the depositor's remark. On the % scale 0 is the no-effect control and ±100 the full control effect; potency means the concentration at half of the fitted maximal effect. An excerpt. The share of hits here may be higher or lower than overall.
SMILES,hNpr1 antagonist
COc1ccc(-c2cc([C@H]3CN4CC[C@H]3C[C@@H]4COC(=O)NC3CCCCC3)nc(C)n2)cc1,5%
CNCc1cn(C[C@H]2CC3CCN2C[C@@H]3C(=O)N(C)C)nn1 (stereo not given in full),7%[70.6 µM]
C[S+](=O)([O-])N1CCC2(CC1)C(=O)NN=C2c1cccnc1,16%[70.6 µM]
O=C(c1onc2ccccc12)N1CCC2(CCCNC2)C1 (stereo not given),4%
CN(C)Cc1cn(C[C@H]2C[C@@H]3CCN2C[C@@H]3C(=O)NC2CC2)nn1,3%[70.6 µM]
C=C[C@H]1CN2CC[C@H]1C[C@@H]2CNCc1ccc(-c2ccccc2)cc1,1%[70.6 µM]
O=C(Nc1ccc2n(c1=O)C[C@H]1C[C@@H]2CN(C2CCOCC2)C1)c1ccccc1,-13%[70.6 µM]
O=C1NC[C@H]2CN(C3CCOCC3)CCN12,1%[70.6 µM]
CC1CCN(C[C@H]2CN3CC[C@H]2C[C@@H]3CNC(=O)c2ccc(C(F)(F)F)cc2)CC1,1%[70.6 µM]
CN1CC2(CCN(c3nccc(N)n3)CC2)CC1C(=O)O (stereo not given),-1%
CC1CCN(C[C@H]2CN3CC[C@H]2C[C@@H]3CNC(=O)Nc2ccccc2)CC1,-2%[70.6 µM]
Cc1noc(C)c1S(=O)(=O)N1C[C@@H]2CCN(C)C[C@]2(C(=O)O)C1,8%
Nc1ncccc1CN1C[C@H](c2ccc3c(c2)OCO3)[C@@H]2[C@H]1C1CCN2CC1,-1%
O=C(Nc1ccc2n(c1=O)C[C@H]1C[C@@H]2CN(C(=O)c2ccccn2)C1)c1cccs1,-1%[70.6 µM]
CC(=O)c1ccc(NC(=O)NC[C@H]2C[C@@H]3CCN2C[C@@H]3CN2CCC(Cc3ccccc3)CC2)cc1,7%
O=C1NC2(CCCN(Cc3ccncc3)C2)COc2ccccc21 (stereo not given),-18%[70.6 µM]
C=C[C@H]1CN2CC[C@H]1C[C@@H]2CNCc1ccccc1,1%[70.6 µM]
Cc1noc(C)c1CN1C[C@H]2CN(S(C)(=O)=O)C[C@@]2(C(=O)O)C1,2%
C=C[C@H]1CN2CC[C@H]1C[C@@H]2CNC(=O)Nc1ccc(OC(F)(F)F)cc1,0%[70.6 µM]
CC(C)Oc1ccc(C(=O)N2CCC3(CC2)c2nccn2-c2ccccc2CN3C)cc1,3%
CCCc1nnc(N2C[C@H]3COc4ccccc4C[C@@]3(C(=O)O)C2)s1,3%
CN1CCOC[C@H]2CCNC[C@H]21,1%
COc1cc2c(cc1OC1CCCC1)NC(=O)C21CCN(C(=O)c2ccccc2)CC1,-19%[70.6 µM]
O=C(NCc1ccco1)N1C[C@@H](c2ccc(F)cc2)[C@@H]2[C@H]1C1CCN2CC1,2%
Cc1ncc2c(n1)C[C@@H]1CC[C@H]2N1C(=O)Nc1ccc(C)c(F)c1,-9%

# Taken from the entries so far (19 entries):
SMILES,hNpr1 antagonist
COc1ccc(-c2cc([C@H]3CN4CC[C@H]3C[C@@H]4COC(=O)NC3CCCCC3)nc(C)n2)cc1,5%
CNCc1cn(C[C@H]2CC3CCN2C[C@@H]3C(=O)N(C)C)nn1 (stereo not given in full),7%[70.6 µM]
C[S+](=O)([O-])N1CCC2(CC1)C(=O)NN=C2c1cccnc1,16%[70.6 µM]
O=C(c1onc2ccccc12)N1CCC2(CCCNC2)C1 (stereo not given),4%
CN(C)Cc1cn(C[C@H]2C[C@@H]3CCN2C[C@@H]3C(=O)NC2CC2)nn1,3%[70.6 µM]
C=C[C@H]1CN2CC[C@H]1C[C@@H]2CNCc1ccc(-c2ccccc2)cc1,1%[70.6 µM]
O=C(Nc1ccc2n(c1=O)C[C@H]1C[C@@H]2CN(C2CCOCC2)C1)c1ccccc1,-13%[70.6 µM]
O=C1NC[C@H]2CN(C3CCOCC3)CCN12,1%[70.6 µM]
CC1CCN(C[C@H]2CN3CC[C@H]2C[C@@H]3CNC(=O)c2ccc(C(F)(F)F)cc2)CC1,1%[70.6 µM]
CN1CC2(CCN(c3nccc(N)n3)CC2)CC1C(=O)O (stereo not given),-1%
CC1CCN(C[C@H]2CN3CC[C@H]2C[C@@H]3CNC(=O)Nc2ccccc2)CC1,-2%[70.6 µM]
Cc1noc(C)c1S(=O)(=O)N1C[C@@H]2CCN(C)C[C@]2(C(=O)O)C1,8%
Nc1ncccc1CN1C[C@H](c2ccc3c(c2)OCO3)[C@@H]2[C@H]1C1CCN2CC1,-1%
O=C(Nc1ccc2n(c1=O)C[C@H]1C[C@@H]2CN(C(=O)c2ccccn2)C1)c1cccs1,-1%[70.6 µM]
CC(=O)c1ccc(NC(=O)NC[C@H]2C[C@@H]3CCN2C[C@@H]3CN2CCC(Cc3ccccc3)CC2)cc1,7%
O=C1NC2(CCCN(Cc3ccncc3)C2)COc2ccccc21 (stereo not given),-18%[70.6 µM]
C=C[C@H]1CN2CC[C@H]1C[C@@H]2CNCc1ccccc1,1%[70.6 µM]
Cc1noc(C)c1CN1C[C@H]2CN(S(C)(=O)=O)C[C@@]2(C(=O)O)C1,2%
C=C[C@H]1CN2CC[C@H]1C[C@@H]2CNC(=O)Nc1ccc(OC(F)(F)F)cc1,0%[70.6 µM]

# Remaining list, next part
SMILES,hNpr1 antagonist
CCN1CCN(C(=O)Cc2cccn2-c2ccc(F)cc2)CC1,1%
CC(=O)Nc1ccc(-c2ccc(=O)n3c2[C@@H]2C[C@@H](CN(S(=O)(=O)c4cccs4)C2)C3)cc1,1%
Cc1ccsc1C(=O)N1[C@H]2CC[C@@H]1c1cnc(-c3ccc(F)cc3)nc1C2,5.6µM*
CCN1CCN(c2ccc(Cl)nn2)C(=O)C1,7%[70.6 µM]
N#Cc1ccccc1S(=O)(=O)N1C[C@@H]2C[C@H](C1)c1ccc(-c3ccc(Cl)cc3)c(=O)n1C2,-2%
COc1ccc([C@@H]2CN(C(=O)C(=O)c3ccco3)[C@@H]3C4CCN(CC4)[C@@H]32)cc1,-21%
O=C(Nc1ccccc1)N1C[C@@H]2C[C@H](C1)c1c(-c3cccs3)ccc(=O)n1C2,0%[70.6 µM]
CN(CCc1ccccn1)C[C@H]1CN2CC[C@H]1C[C@@H]2CNC(=O)c1ccccc1,5%[70.6 µM]
CCC(CC)c1cc([C@H]2CN3CC[C@H]2C[C@@H]3CNC(=O)c2ccccc2)nc(-c2ccncc2)n1,-12%
CC(C)(C)CC(=O)N1C[C@@H]2C[C@H](C1)c1ccc(NC(=O)Nc3cccc(F)c3)c(=O)n1C2,5%
COc1ccccc1-c1cc([C@H]2CN3CC[C@H]2C[C@@H]3CNS(C)(=O)=O)n(C)n1,7%[70.6 µM]
O=C(O)CN1CCC[C@]2(C(=O)O)CN(Cc3ccncc3)CC[C@@H]12,1%
Cc1ccc([C@H]2C[C@@H](O)[C@@H](O)[C@@H]2NCC(C)C)cc1,-11%[70.6 µM]
COCCC(=O)Nc1ccc2n(c1=O)C[C@H]1C[C@@H]2CN(CCCc2ccccc2)C1,-9%[70.6 µM]
Nc1ccnc(N2CC[C@H]3N(CC(=O)O)CCC[C@]3(C(=O)O)C2)n1,4%
CCC1(N2CCN(C(=O)Cc3ccc(Cl)cc3)CC2)CCN(S(C)(=O)=O)C1 (stereo not given),2%
O=C(c1ccsc1)N1[C@H]2CC[C@@H]1c1cnc(-c3ccc(F)cc3)nc1C2,8.9µM*
C=C[C@H]1CN2CC[C@H]1C[C@@H]2CNS(=O)(=O)c1ccc(Cl)cc1,0%[70.6 µM]
O=C(c1ccc(F)cc1)N1C[C@@H]2C[C@H](C1)c1c(-c3ccccc3F)ccc(=O)n1C2,-10%[70.6 µM]
CC(C)CN1Cc2ccccc2-n2ccnc2C12CCN(C(=O)c1ccccn1)CC2,1%
CC[C@H]1CN2CC[C@H]1C[C@@H]2CNC(=O)Nc1ccc(Oc2ccccc2)cc1,-8%[70.6 µM]
O=C(Nc1ccc(=O)n2c1[C@@H]1C[C@@H](CN(C(=O)c3ccc(F)cc3)C1)C2)C1CCCCC1,-9%
CCC(CC)c1cc([C@H]2CN3CC[C@H]2C[C@@H]3CNS(=O)(=O)c2ccccc2C#N)nc(-c2ccncc2)n1,-24%
CSCC(=O)Nc1ccc2n(c1=O)C[C@H]1C[C@@H]2CN(C(=O)c2ccccc2)C1,2%[70.6 µM]
O=C(CN1CCCC1=O)NCc1ccc(F)c(Cl)c1,0%

# Further records follow.
SMILES,hNpr1 antagonist
CN(C)c1ccc(CC(=O)N2CCN(Cc3ccccc3)CC(O)C2)cc1 (stereo not given),-1%
CSc1nccc(N2CCC3(CCCN(CC4CC4)C3)C2)n1 (stereo not given),1%
Cc1ccccc1-c1ccc2n(c1=O)C[C@H]1C[C@@H]2CN(S(=O)(=O)c2cccs2)C1,-1%[70.6 µM]
O=C1CO[C@H]2CN(Cc3ccccn3)C[C@H]2N1c1ccccc1,1%[70.6 µM]
CCC(CC)c1cc([C@H]2CN3CC[C@H]2C[C@@H]3CNC(=O)Cc2cccs2)nc(-c2ccncc2)n1,?
Cc1cccc([C@H]2C[C@@H](O)[C@@H](O)[C@@H]2NCC2CCCC2)c1,-28%[70.6 µM]
CSCC(=O)N1CC(CO)C2(CCNCC2)C1 (stereo not given),0%
Cc1ccccc1S(=O)(=O)N1[C@H]2CC[C@@H]1c1cnc(-c3ccccc3)nc1C2,?
CC(=O)c1cccc(NC(=O)OC[C@H]2C[C@@H]3CCN2C[C@@H]3c2cc(C3CCCC3)nc(C)n2)c1,-8%
Cc1ccccc1-c1ccc2n(c1=O)C[C@H]1C[C@@H]2CN(C(=O)Nc2ccc(Cl)cc2)C1,-3%[70.6 µM]
Cc1nc(-c2ccccc2)cc([C@H]2CN3CC[C@H]2C[C@@H]3CNS(=O)(=O)Cc2ccccc2)n1,-1%
COc1cc2c(cc1OCC1CC1)NC(=O)C21CCN(C(=O)C2CCC2)CC1,1%[70.6 µM]
CCCNC(=O)OC[C@H]1C[C@@H]2CCN1C[C@@H]2c1cc(-c2ccccc2OC)nn1C,-1%[70.6 µM]
COc1cc2c(cc1OCc1ccccc1)N(C(=O)c1cc3ccccc3[nH]1)CC21CCN(C)CC1,-1%
CCN(CC)C[C@H]1CN2CC[C@H]1C[C@@H]2CNC(=O)Nc1cccc(SC)c1,-3%[70.6 µM]
Cc1ccc(C(=O)N2CCC3(CC2)c2nccn2-c2ccccc2CN3C)cc1C,-2%
Cc1nc(-c2ccco2)cc([C@H]2CN3CC[C@H]2C[C@@H]3CNS(C)(=O)=O)n1,5%[70.6 µM]
CCCS(=O)(=O)Nc1ccc(=O)n2c1[C@@H]1C[C@@H](CN(C(=O)c3ccc(OC)cc3)C1)C2,2%
COc1ccc(C(=O)N2CCC3(CC2)c2nccn2-c2ccccc2CN3C)cc1,2%
COc1cc2c(cc1Oc1ccccc1)NC(=O)C21CCN(C(=O)c2ccccc2)CC1,?
N#Cc1cccc(-c2ccc3n(c2=O)C[C@H]2C[C@@H]3CN(C(=O)CSCC(=O)O)C2)c1,0%[70.6 µM]
Cc1ncc2c(n1)C[C@@H]1CC[C@H]2N1C(=O)NC(C)(C)C,4%
COC[C@H]1CCCN1C[C@H]1CN2CC[C@H]1C[C@@H]2CNC(=O)Nc1ccsc1,-4%[70.6 µM]
CC(=O)Nc1ccc(S(=O)(=O)NC[C@H]2C[C@@H]3CCN2C[C@@H]3c2cc(-c3ccccc3)nn2C)cc1,0%
O=C(NC1CCCCC1)N1[C@H]2CC[C@@H]1c1cncnc1C2,13%

# (cont.)
SMILES,hNpr1 antagonist
COc1cc2c(cc1OCc1ccncc1)NC(=O)C21CCN(Cc2ccccc2O)CC1,-23%
O=C(NC[C@H]1C[C@@H]2CCN1C[C@@H]2CN1CCC(Cc2ccccc2)CC1)Nc1ccccc1,-1%
CN(C)c1ccc(C(=O)N2CCC3(CC2)c2nccn2-c2ccccc2CN3C)cc1,-1%
COc1cc2c(cc1OCc1ccccc1)N(C(=O)CC1CC1)CC21CCN(C)CC1,12%[70.6 µM]
CN(C)CC(=O)N1C[C@@H]2C[C@H](C1)c1c(-c3cccc(C#N)c3)ccc(=O)n1C2,3%[70.6 µM]
Cc1ncc2c(n1)C[C@@H]1CC[C@H]2N1C(=O)C1CCCCC1,2%
CC(C)CCN(C1CCNCC1)C1CCOCC1,2%
CN1c2ncccc2CN(Cc2ccccc2)CC[C@H]1CO,-11%[70.6 µM]
O=C(NC[C@H]1C[C@@H]2CCN1C[C@@H]2CN1CCCCC1)c1ccco1,-9%[70.6 µM]
COc1ccc(CC(=O)N2C[C@@H](CO)[C@H](N(C)C)C2)cc1Cl,3%
Cc1nc(-c2ccco2)cc([C@H]2CN3CC[C@H]2C[C@@H]3CNC(=O)C(C)(C)C)n1,0%[70.6 µM]
Cc1nc(-c2ccco2)cc([C@H]2CN3CC[C@H]2C[C@@H]3CNC(=O)C2CC2)n1,1%[70.6 µM]
CC(C)(O)c1cn(C[C@H]2CC3CCN2C[C@@H]3C(=O)NCc2ccco2)nn1 (stereo not given in full),3%[70.6 µM]
COc1ccccc1N1CCN(C[C@H]2CN3CC[C@H]2C[C@@H]3CNC(=O)c2ccc3c(c2)OCO3)CC1,-5%

# Screening data deposited in PubChem BioAssay by National Center for Advancing Translational Sciences (NCATS).
